# miR-21 FLuc = qHTS Assay for Modulators of miRNAs and/orActivators of miR-21 | HeLa miR-21 FLuc reporter, luciferase, 48 h | Potency, µM (series often up to 38.3 µM), without a hit: at the top dose reporter change, positive = more light | 340,000 tested, under 10 active | AID 2288, 2010; active = well fitted rising curve with a large enough effect; inconclusive = small, poorly fitted or top-dose-only effect; inactive = no such curve, though single readings can be large or run the other way;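 further: % of control where 0% means no effect; miR-21 action dims this reporter so a rising signal means less miR-21 action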
#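 HeLa cells endogenously expressing miR-21, stably carrying CMV-driven firefly luciferase with a downstream miR-21 binding site, 2000 cells/well. Titrations up to approximately 40 uM, 48 hours; luciferase luminescence read.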
# Rango complex inh = qHTS Assay for Inhibitors of Rango (Ran-regulated importin-beta cargo) - Importin beta complex formation; Potency, µM (top dose mostly 92.2 µM), for the others: at the top dose inhibition of complex formation; actives 0.031% (n = 340,000); Rango CFP/YFP FRET sensor + importin beta, 45 min; active = rising FRET ratio curve, often small or poorly fitted; inconclusive = mostly compound fluorescence or quenching in the first reads; inactive = flat curves in all reads;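 further: potency means the concentration at half of the fitted maximal effect; 0% = DMSO wells and 100% = buffer wells lacking importin beta; nearly all actives have a fitted effect of over 15% in size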
#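 Inhibition scored from the CFP 486 nm/YFP 530 nm FRET ratio 45 min after adding 0.125 microM importin beta to 50 nM Rango biosensor preincubated 5 min with compound (room temperature, PBS with DTT, Tween-20, BSA). No-importin wells as positive control.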
# GLA inh pH 4.5 = qHTS Assay for Inhibitors of Human alpha-Galactosidase at pH 4.5; activity change, negative = inhibition, % at 105 µM; 230,000 tested, under 10 active; Alpha-galactosidase A (Homo sapiens), P06280; AID 1467, 2008; purified enzyme, 4-MU-alpha-Gal fluorescence, pH 4.5; inconclusive = small, poorly fitted or top-dose-only inhibition, or a rising curve; inactive = flat fitted curve, though single readings scatter; no compound was filed as active;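 further: 0% = full activity with enzyme and -100% = basal without enzyme; dose as in the result columns while the protocol names 77 µM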
# Target sequence (P06280 whole entry, looked up): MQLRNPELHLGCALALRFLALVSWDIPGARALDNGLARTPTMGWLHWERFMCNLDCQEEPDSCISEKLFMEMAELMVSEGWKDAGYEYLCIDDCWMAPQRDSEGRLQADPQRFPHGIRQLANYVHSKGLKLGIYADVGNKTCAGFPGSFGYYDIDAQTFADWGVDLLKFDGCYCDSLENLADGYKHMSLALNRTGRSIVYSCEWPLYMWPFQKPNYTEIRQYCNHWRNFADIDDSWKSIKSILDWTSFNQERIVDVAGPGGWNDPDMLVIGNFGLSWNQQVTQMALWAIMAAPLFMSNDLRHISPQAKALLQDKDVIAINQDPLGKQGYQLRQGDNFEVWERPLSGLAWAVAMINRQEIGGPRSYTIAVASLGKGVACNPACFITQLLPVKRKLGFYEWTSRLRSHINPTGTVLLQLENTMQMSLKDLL
# Rango dissoc inh = qHTS Assay for Inhibitors of RanGTP induced Rango (Ran-regulated importin-beta cargo) - Importin beta complex dissociation. Snurportin-1 (Homo sapiens) + GTP-binding nuclear protein Ran (Homo sapiens) + Importin …. Biochemical FRET Rango-importin beta, RanGTP-induced dissociation. Potency, µM (series often up to 46.1 µM), for the others: at the highest dose activity change, negative = inhibition. actives 0.071% (n = 340,000). AID 540253, 2011; active means falling FRET ratio curve, often poorly fitted, with flat reads before Ran was added; inconclusive means other falling curves, or compound fluorescence or quenching; inactive means flat or rising ratio curve;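 further: potency means the concentration at half of the fitted maximal effect; % of control where 0% means no effect; nearly all actives have a fitted effect of over 45% in size; -100% = wells without RanGTP and RCC1; the record marks most hits as doubtful in a second field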
#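 Compounds preincubate 5 min with complex of recombinant Rango and importin beta in PBS with 1 mM DTT. Ran (0.6 uM) loaded with 2 mM GTP plus 0.2 uM RCC1 starts dissociation; FRET is recorded 45 min later.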
# The depositor's hits bear a star; ? = inconclusive; / = no result given. An excerpt (hit frequency here may not be typical).
miR-21 FLuc	Rango complex inh	GLA inh pH 4.5	Rango dissoc inh	structure
/	-6.2%	/	1%	Oc1ccc(C[C@H]2CNCCN2CCc2cccc3ccccc23)cc1
-5%	3.2%	5	0%	O=CN1CCCN(Cc2nc(Cc3ccccc3F)no2)CC1
0%	-1.1%	1	-7%	CCCC(=O)Nc1ccc(Cl)c(NC(=O)c2ccco2)c1
0%	0.5%	5	0%	Cc1ccc(N2C(=O)CSC2c2c(F)cccc2Cl)cc1 (centres undefined)
-12%	-2.5%	-3	8%	COc1cc2c(cc1OC)CN(C(=O)CSc1nc3[nH]ncc3c(=O)n1-c1ccccc1)CC2
-48%	-0.5%	/	2%	COc1ccc(NC(=O)c2cc3ccccc3cc2OC)cc1OC
-2%	-0.6%	-2	1%	CCCNC(=O)c1ccc(C2SCC(=O)N2Cc2ccccc2)cc1 (centres undefined)
-7%	1.6%	-1	-9%	COc1cccc(CN2CCN(c3ncccn3)CC2)c1

# Molecules shown so far that contain four or more nitrogen atoms (3):
miR-21 FLuc	Rango complex inh	GLA inh pH 4.5	Rango dissoc inh	structure
-5%	3.2%	5	0%	O=CN1CCCN(Cc2nc(Cc3ccccc3F)no2)CC1
-12%	-2.5%	-3	8%	COc1cc2c(cc1OC)CN(C(=O)CSc1nc3[nH]ncc3c(=O)n1-c1ccccc1)CC2
-7%	1.6%	-1	-9%	COc1cccc(CN2CCN(c3ncccn3)CC2)c1

# (listing goes on)
miR-21 FLuc	Rango complex inh	GLA inh pH 4.5	Rango dissoc inh	structure
1%	0.3%	/	6%	COc1ccccc1-c1coc2c(CN3CCCCC3C)c(O)ccc2c1=O (centres undefined)
7%	-4.8%	-7	-5%	O=C1CSC(c2cn(-c3ccccc3)nc2-c2cc3ccccc3oc2=O)N1Cc1cccnc1 (centres undefined)
0%	-2.7%	-14	-16%	CCCCC(=O)Nc1nnc(SCC(=O)N2CCN(c3ccccc3OC)CC2)s1
-9%	-3.3%	-17	15%	COc1c(Cl)cc(C(=O)Nc2ccccc2-c2ccccc2)cc1Cl
-2%	3.0%	-6	9%	Cc1nc2sc3c(c2c2nnc(SCC(=O)NCc4ccco4)n12)CCCC3
/	5.8%	/	1%	CCC(C)(C)C(=O)O
-3%	0.4%	/	8%	Cc1cc(C)c(C)c(OCCN2CC(C)OC(C)C2)c1 (centres undefined)
-1%	-3.2%	-3	-6%	O=C(NCc1ccc(Cl)cc1)c1ccc(-n2cccn2)nc1

# Among those listed so far, these contain fluorine:
miR-21 FLuc	Rango complex inh	GLA inh pH 4.5	Rango dissoc inh	structure
-5%	3.2%	5	0%	O=CN1CCCN(Cc2nc(Cc3ccccc3F)no2)CC1
0%	0.5%	5	0%	Cc1ccc(N2C(=O)CSC2c2c(F)cccc2Cl)cc1 (centres undefined)

# More compounds
miR-21 FLuc	Rango complex inh	GLA inh pH 4.5	Rango dissoc inh	structure
/	5.7%	/	12%	Cc1cccc(C(=O)Nc2ccn(C)n2)c1
-2%	-1.9%	/	21%	COc1ccc(Cl)cc1NC(=O)CN1CCN(S(=O)(=O)c2ccc(F)cc2)CC1
0%	2.6%	/	?	Cc1nc(SC(C)C(=O)NC2CCCCC2C)c2c(C)c(C)sc2n1 (centres undefined)
-1%	/	1	/	Cc1cccc2cc(C(c3nnnn3CC3CCCO3)N3CCCC4(CCCCC4)C3)c(=O)[nH]c12 (centres undefined)
-3%	11%	/	2%	Cc1ccc(S(=O)(=O)Nc2ccc3c(c2)C(=O)NC3=O)cc1[N+](=O)[O-]
1%	-2.7%	/	15%	CCN(CC)CCCNC(=S)N(CCO)Cc1cc2cc3c(cc2[nH]c1=O)OCCO3
-9%	-0.2%	-1	20%	O=C1c2ccsc2SCCN1Cc1cccc(Cl)c1
-18%	0.3%	-7	-1%	COc1cccc(CSc2nnc(-c3ccc(F)cc3)o2)c1
/	-2.2%	/	2%	CCOc1ccccc1/C=N/NC(=O)c1nnn(-c2nonc2N)c1CN1CCCCCC1
-4%	2.2%	-1	6%	Cc1ccc(-n2ncc3c(=O)n(CC(=O)Nc4cccc(Cl)c4)cnc32)cc1C
/	?	/	-2%	CC[C@]12c3[nH]c4cc(-c5ccco5)ccc4c3CCN1C(=O)[C@@H](CC(=O)NC(C)(C)C)C[C@@H]2C(=O)N1CCN(C(=O)C2CC2)CC1
-59%	-2.0%	/	-4%	O=C(NCCCc1ccccc1)c1ccc(F)cc1
0%	-0.8%	8	1%	CNC(=S)N1CCn2cccc2C1c1ccc(F)cc1 (centres undefined)
-5%	3.4%	4	0%	Cc1ccc(-n2nc3c(=S)[nH]nc(C)c3c2C)cc1
2%	0.4%	-4	5%	CCOc1ccc(CNC(=O)CCS(=O)(=O)Cc2cccc(Cl)c2)cc1OC
-3%	?	0	-1%	Cc1cccc(CCNC(=O)CC2C(=O)NCCN2Cc2ccc(F)c(F)c2)n1 (centres undefined)
-7%	3.4%	-20	1%	COc1cc(OC)c2c(-c3ccccc3)cc(=O)oc2c1C(CC(=O)N1CCOCC1)c1ccc(N(C)C)cc1 (centres undefined)
1%	1.6%	/	19%	CN1CCN(S(=O)(=O)c2ccc3c(c2)NC(=O)CS3)CC1
-8%	0.2%	-12	-22%	Cc1ccc(C(=O)c2cc3c(cc2N)OCCO3)cc1
-3%	-1.9%	-4	1%	COc1cc(/C=N/NC(=O)CNC(=O)c2ccccc2)ccc1OC(=O)c1cccs1
15%	5.1%	-6	16%	O=C(Nc1cc(Cl)ccc1O)c1cc2n(n1)C(C(F)(F)F)CC(c1ccc3c(c1)OCO3)N2 (centres undefined)
28%	-2.9%	-4	-10%	Cc1nn(-c2ccccc2)c(C)c1C(=O)OCC(=O)c1c(N)n(CC(C)C)c(=O)n(C)c1=O
2%	?	/	0%	CCN1C(=O)[C@H]2[C@@H](c3ccc(C)cc3)N3C(=O)N(c4ccccc4)C(=O)[C@@]3(Cc3ccccc3)[C@H]2C1=O
-2%	-1.3%	6	9%	COc1ccc(CCNC(=O)c2cc(-c3ccccn3)nc3c(Cl)cccc23)cc1OC
-2%	-1.5%	/	-3%	CCCC(C)C(=O)Nc1nnc(CCc2ccccc2)s1 (centres undefined)
3%	0.2%	0	-8%	O=C(COc1ccc(Cl)cc1)Nc1nc(-c2ccc(S(=O)(=O)N3CCOCC3)cc2)cs1
-6%	-3.5%	7	-17%	O=C(CN1C(=O)c2cccc3cccc(c23)C1=O)N1CCOCC1
/	0.1%	/	14%	CCCCn1c(N)c(N(CCOC)C(=O)COC(=O)CCOc2ccc(C)cc2)c(=O)[nH]c1=O
-11%	?	0	?	Cc1c(N=C2N=C(NC(=O)Nc3ccc(Cl)cc3)c3ccccc32)c(=O)n(-c2ccccc2)n1C
2%	-7.1%	6	-1%	O=S(=O)(CCc1nnc(-c2ccccc2)o1)c1ccc2ccccc2c1
0%	-0.2%	/	3%	O=C(CSc1nnc(COc2ccccc2)o1)Nc1ccc(F)cc1
0%	1.2%	5	-9%	CCOC(CNC(=O)c1cccc([N+](=O)[O-])c1)OCC
/	-0.7%	/	-4%	COc1ccccc1NS(=O)(=O)c1ccc(C(=O)NCc2ccc(S(N)(=O)=O)cc2)cc1
/	2.7%	/	-6%	O=C1C[C@@H]2c3c(cccc3CN1Cc1ccccc1F)C[C@@H](O)[C@H]2O
1%	0.4%	-14	-3%	CCOC(=O)c1c(-c2ccccc2)csc1NC(=O)c1ccc(N2C(=O)CCC2=O)cc1
3%	?	/	-5%	O=C(CNC(=O)c1ccco1)OCC(=O)c1ccc([N+](=O)[O-])cc1
-5%	1.7%	8	-9%	Nc1ccccc1C(=O)NCc1ccccc1
/	4.7%	/	23%	COCCN1CCN(C(=O)c2ccc3c(c2)S(=O)(=O)c2ccccc2C3=O)CC1
-9%	6.0%	-10	-20%	CC(=O)Nc1ccc(S(=O)(=O)NNC(=O)COc2ccc(Cl)cc2Cl)cc1
-2%	2.5%	7	-4%	COc1ccc(NC(=O)c2cccnc2C(=O)O)c(OC)c1
-70%	-0.8%	/	6%	O=[N+]([O-])c1ccccc1/C=N/OCc1ccccc1
-1%	?	-4	?	Cc1ccc(-n2c(O)c(C=Nc3ccc4c(c3)OCO4)c3ccccc3c2=O)cc1C
-6%	0.4%	-5	-10%	O=c1c2ccccc2c(-c2ccc(Cl)cc2)nn1-c1ccccc1
0%	-1.9%	-5	4%	Cc1ccc(C)n1-c1ccc(C(=O)NN)s1
-2%	-4.6%	2	-2%	COCCN(CCOC)C(=S)Nc1ccccc1Cl
/	-3.3%	/	-10%	CNc1nnc(SCC(=O)c2c(N)n(C3CC3)c(=O)[nH]c2=O)s1
-1%	4.8%	-8	11%	CCCCN1C(=O)C(=O)N(CC(=O)Nc2cc(OCC)c(N3CCOCC3)cc2OCC)C1=O
2%	0.4%	2	1%	O=C(NCCn1cccn1)c1ccc(OC2CCN(C(=O)C3CC3)CC2)cc1
-6%	-0.4%	-6	4%	CCOC(=O)c1ccc(NC(=S)NCCc2ccccc2)cc1
-2%	-0.7%	/	-19%	CCOC(=O)c1ccc(NS(=O)(=O)c2cc3c(cc2C)NC(=O)CO3)cc1
10%	0.5%	/	2%	CC(CNC(=O)CCn1ccc2cc(S(=O)(=O)N3CCCC3)ccc21)c1ccccc1 (centres undefined)
-9%	0.8%	7	-7%	CN1CCN(C(=O)C2=C[C@H](C3CCCCC3)C[C@H](OCc3ccc(CO)cc3)O2)CC1
/	-5.1%	/	-8%	CN(CC(=O)Nc1cccc(F)c1)C(=O)c1ccccc1CCc1ccccc1
0%	1.0%	-3	1%	O=[N+]([O-])c1ccc(C2=NN(CCO)C(=Nc3ccc(OC(F)(F)F)cc3)SC2)cc1
-11%	4.3%	-4	10%	CNC(=S)NNC(=O)CNc1ccc(C)c(Cl)c1
-1%	3.2%	0	-6%	CCCN(C(=O)/C=C/c1ccco1)c1c(N)n(Cc2ccccc2)c(=O)[nH]c1=O

# Individual results from the entries so far:
# `CC(CNC(=O)CCn1ccc2cc(S(=O)(=O)N3CCCC3)ccc21)c1ccccc1` (centres undefined) in Rango dissoc inh is listed with 2%
# `CNC(=S)NNC(=O)CNc1ccc(C)c(Cl)c1` in GLA inh pH 4.5 is listed with -4
# `CN(CC(=O)Nc1cccc(F)c1)C(=O)c1ccccc1CCc1ccccc1` in Rango dissoc inh is listed with -8%
# `CCOC(=O)c1ccc(NS(=O)(=O)c2cc3c(cc2C)NC(=O)CO3)cc1` in Rango complex inh is listed with -0.7%

# Later entries:
miR-21 FLuc	Rango complex inh	GLA inh pH 4.5	Rango dissoc inh	structure
-1%	-1.9%	/	-20%	Cc1ccc(NS(=O)(=O)c2ccc(C(=O)N3CC(C)OC(C)C3)cc2)cc1 (centres undefined)
/	-5.2%	/	-2%	CN(C(=O)COc1coc(CN2CCN(c3ccccc3)CC2)cc1=O)c1ccccc1
0%	-3.3%	4	-3%	CCc1nnc(NC(=O)c2cc(-c3ccccc3)nn2-c2ccccc2)s1
-6%	8.2%	-4	-4%	CCO[C@H]1OC(C(=O)N2CCN(Cc3ccc4c(c3)OCO4)CC2)=C[C@@H](C2CC2)[C@@H]1CCCO
-4%	-0.3%	4	12%	Cc1cc(C(=O)Nc2c(C)n(C)n(-c3ccccc3)c2=O)c(C)o1
1%	-2.6%	/	-14%	COc1cccc(C(C(=O)NC2CCCCC2)N(Cc2ccco2)C(=O)c2ccccn2)c1 (centres undefined)
4%	4.0%	/	-2%	Cc1cc2oc(=O)cc(CN3CCOCC3)c2cc1C(C)C
-24%	6.8%	6	0%	CSc1nnc(-c2ccc(Br)s2)n1C
-2%	-3.5%	-12	6%	CCN(CC)S(=O)(=O)c1ccc(NC(=O)Cn2cnc3ccccc3c2=O)cc1
/	-2.0%	/	2%	COCCn1c(N)c(N(Cc2ccccc2)C(=O)COc2ccc(F)cc2Cl)c(=O)[nH]c1=O
-16%	-2.0%	-2	15%	CCOC(=O)c1cnc2c(cnn2C)c1NCCC#N
0%	-0.5%	/	-13%	COc1ccc(NC(=O)CCN2CCN(C/C=C/c3ccccc3)CC2)cc1
-22%	0.8%	2	-15%	COCCn1c(C)cc(C(=O)CSc2nncn2-c2ccccc2)c1C

# Screening results as filed in PubChem.
